# TDP1 cell CPT = growth inhibition of DT40 Tdp1-/-;hTDP1 cells with camptothecin (screen for TDP1 inhibitors) | chicken DT40 Tdp1-/-;hTDP1 cells + 20 nM CPT, ATP luminescence, 48 h | Potency, µM (series often up to 46.2 µM), for the others: at the highest dose activity change, negative = growth inhibition, actives largely listed as inhibitors | 420,000 compounds, 12% hits; further: nearly all actives have a fitted effect of over 55% in size
#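 Cell growth measured by CellTiter-Glo luminescence after a minimum 48 h, 37 C compound exposure with 20 nM CPT in Tdp1-knockout DT40 cells stably expressing hTDP1, seeded 400/well; qHTS titration format.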
# N370S GC mod = inhibitors or activators of N370S glucocerebrosidase for Gaucher disease | P04062 | N370S GC spleen homogenate, 4MU-glucoside fluorescence | Potency, µM (doses to about 59.4 µM), for inactives: at the top dose activity change, negative = inhibition, hits mostly inhibitors | 330,000 compounds, 0.092% hits;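 further: 0% = full enzyme activity and -100% = no enzyme basal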
# * = called active by the depositor; ? = inconclusive; nt = not tested or not shown; & = joins results of further samples; [ ] = remark or other dose. The call rests on the fitted dose curve; in most records, active means well fitted curve in the direction sought with a large enough effect; inconclusive means small, poorly fitted or top-dose-only effect, or another doubt; inactive means no such curve, though single readings can be large; an effect the other way counts as inactive or inconclusive. Unless noted, on the % scale 0 is the no-effect control and ±100 the full control effect; potency means the concentration at half of the fitted maximal effect.
smiles,TDP1 cell CPT,N370S GC mod
CCOC(=O)c1ccc(NC(=O)Cn2c(C)nc3c(sc(=S)n3CC)c2=O)cc1,?,-2%
CCn1ncc(Br)c1C(=O)N(C)C12CC3CC(CC(C3)C1)C2,?,21%
Cc1ccc(CNC(=O)C2CCCN2C(=O)Nc2ccc(C)cc2)cc1 (stereo not given),-12%,5%
COc1ccc(C(=O)OCC(=O)N2CCc3ccccc32)cc1S(=O)(=O)N1CCOCC1,-24%,nt
O=C(COC(=O)CCC(=O)Nc1nccs1)NCc1ccco1,8%,14%
Cc1onc(-c2c(F)cccc2Cl)c1C(=O)OCC(=O)NC(=O)NCC(C)C,-23%,-4%
Cc1ccc(C)c(C(=O)C(C)OC(=O)c2cccn2C)c1 (stereo not given),?,19%
Fc1ccc(-c2cc(C(F)(F)F)nc(-n3cncn3)n2)cc1,?,2%
CCOC(=O)C1CCCN(C(=O)c2cn(C)c3ccc(S(=O)(=O)N(C)C)cc3c2=O)C1 (stereo not given),-16%,0%
COC(=O)c1cc2ccsc2n1CC(=O)NCC1CCCO1 (stereo not given),1%,3%
COCCNC(=O)c1ccccc1NC(=O)c1ccc(Cl)c(S(=O)(=O)Nc2ccc(C)cc2C)c1,?,-8%
O=C(CNC(=O)c1cccc(OC(F)F)c1)OCc1cc(=O)n2cc(Br)ccc2n1,4%,8%

smiles,TDP1 cell CPT,N370S GC mod
O=c1[nH]cc(S(=O)(=O)c2ccccc2)[nH]1,?,14%
O=C(CCN1C(=O)[C@@H]2Cc3ccccc3CN2C1=O)N[C@@H](Cc1ccccc1)C(=O)O,-12%,-1%
Cc1nc(N)[nH]c(=O)c1CCC(=O)OCC(C)C,-3%,2%
Cc1cccc(N2CCN(C(=O)N3CCOCC3)CC2)c1C,?,1%
COc1ccc(C2c3ccc(O)cc3Oc3ncn4nc(-c5ccccn5)nc4c32)cc1 (stereo not given),-13%,-15%
Nc1nonc1-n1nnc(C(=O)N/N=C/c2ccco2)c1CSc1ccccc1,-15%,-3%
O=C(Nc1nnc(S(=O)(=O)N2CCCCC2)s1)c1ccc(Cl)cc1,?,-7%
O=C(CN1CCOCC1)Nc1ccc(F)cc1,-8%,-8%
O=C(CSc1nnc(-c2ccncc2)o1)Nc1cc(F)ccc1F,0%,nt
CCNc1ccc(C(=O)OCC(=O)NCCN2C(=O)CSC2=O)cc1[N+](=O)[O-],-11%,-8%
O=C(Nc1cccnc1)c1ccc(COc2ccccc2Br)cc1,?,-17%
COc1ccc(Br)c(-c2nc(CS(=O)(=O)c3ccc(F)cc3)no2)c1,?,5%

# Arranged by heavy-atom count (descending): part of the list above
smiles,TDP1 cell CPT,N370S GC mod
O=C(CCN1C(=O)[C@@H]2Cc3ccccc3CN2C1=O)N[C@@H](Cc1ccccc1)C(=O)O,-12%,-1%
Nc1nonc1-n1nnc(C(=O)N/N=C/c2ccco2)c1CSc1ccccc1,-15%,-3%
Cc1onc(-c2c(F)cccc2Cl)c1C(=O)OCC(=O)NC(=O)NCC(C)C,-23%,-4%
O=C(Nc1nnc(S(=O)(=O)N2CCCCC2)s1)c1ccc(Cl)cc1,?,-7%
Fc1ccc(-c2cc(C(F)(F)F)nc(-n3cncn3)n2)cc1,?,2%
O=c1[nH]cc(S(=O)(=O)c2ccccc2)[nH]1,?,14%

# Taken from above:
# O=C(CCN1C(=O)[C@@H]2Cc3ccccc3CN2C1=O)N[C@@H](Cc1ccccc1)C(=O)O @ TDP1 cell CPT: -12%
# CCn1ncc(Br)c1C(=O)N(C)C12CC3CC(CC(C3)C1)C2 @ N370S GC mod: 21%

# One compound at a time, as listed above:
# `COC(=O)c1cc2ccsc2n1CC(=O)NCC1CCCO1` (stereo not given) in the list: TDP1 cell CPT: 1%; N370S GC mod: 3%
# `CCOC(=O)C1CCCN(C(=O)c2cn(C)c3ccc(S(=O)(=O)N(C)C)cc3c2=O)C1` (stereo not given) in the list: TDP1 cell CPT: -16%; N370S GC mod: 0%
# `COc1ccc(C2c3ccc(O)cc3Oc3ncn4nc(-c5ccccn5)nc4c32)cc1` (stereo not given) in the list: TDP1 cell CPT: -13%; N370S GC mod: -15%

# The results go on.
smiles,TDP1 cell CPT,N370S GC mod
CCS(=O)(=O)c1nc(S(=O)(=O)c2ccc(Cl)cc2)c(NCc2ccco2)s1,-7%,10%
COc1ccc(CNC(=O)C(c2ccco2)N(C(=O)Cc2cccs2)c2cccnc2)cc1 (stereo not given),?,1%
CC1CCN(CCCCOc2ccc(F)cc2)CC1,9%,-2%
C(=C\c1ccncc1)/c1ccncc1,0%,4%
Cc1cc(C)c2sc(NC(=O)c3ccc(N4C(=O)CCC4=O)cc3)nc2c1,-21%,-8%
CCOc1ccc(NC(=O)CN2CCN(CC(=O)Nc3cc(OC)cc(OC)c3)CC2)cc1,-10%,-13%
N#Cc1ccccc1OCC(=O)NC1CCCCC1,-16%,nt
O=S(=O)(c1ccc2c(c1)OCCO2)N1CCN(Cc2ccccc2)CC1,0%,-3%
CCCCNC(=O)Cc1cc(=O)[nH]c(=O)[nH]1,-23%,-9%
CN1CCN(CC(O)COCc2ccc3c(c2)OCO3)CC1 (stereo not given),0%,-2%
O=C(NCCN1CCOCC1)c1cccc(Cl)c1,-2%,7%
CC12CN3CC(C)(CN(C1)C3c1ccc(Br)cc1)C2 (stereo not given),2%,-4%

smiles,TDP1 cell CPT,N370S GC mod
Cc1noc(COc2ccccc2OCC(O)CNC(C)(C)C)n1 (stereo not given),-8%,5%
COC(=O)c1c(-c2ccccc2)c(-c2ccccc2)nn(C)c1=O,?,0%
COCCOc1ccc(C(F)(F)F)cc1NC(=O)c1ccc(F)cc1,3%,2%
N#Cc1ccccc1NC(=O)COC(=O)COc1ccccc1[N+](=O)[O-],1%,7%
Nc1nc(-c2ccco2)nn1C(=O)c1ccc([N+](=O)[O-])cc1,2%,-1%
CS(=O)(=O)N(CC(=O)NCCSCc1ccco1)c1ccc(Cl)cc1,21%,2%
OCC(CO)(CO)NCc1ccc(-c2ccccc2)cc1,-17%,-6%
Cc1nn(C)cc1CNC(=O)c1cc2n(n1)C(C(F)(F)F)CC(c1cccs1)N2 (stereo not given),?,0%
COc1ccccc1NC(=O)[C@H](COCc1ccccc1)NC(=O)OC(C)(C)C,23µM*,13%
c1ccc(-c2[nH]ncc2CN2CCN(Cc3ccc4c(c3)OCO4)CC2)cc1,2%,-2%
Cc1nnsc1C(=O)Nc1ccccc1,9%,-12%
COc1cc(NC(=O)Cc2c(C(=O)O)n(C)c3ccccc23)cc(OC)c1OC,10%,2%

smiles,TDP1 cell CPT,N370S GC mod
CC1CC(C)CN(S(=O)(=O)N2CCCC(C(=O)NCCc3ccccc3)C2)C1 (stereo not given),-14%,-1%
CCOC(=O)Cn1c(-c2ccccc2)cc(SC)c(C#N)c1=O,-3%,5%
Cc1cc(C)n2nc(C(=O)NCc3ccccc3)nc2n1,-9%,-10%
CSc1ccccc1NC(=O)c1csc(C)c1,10%,5%
Cc1ccc(-c2nn(C)c(=O)c3ccccc23)cc1CNC(=O)c1ccco1,-2%,1%
CSc1ccc(Cl)c(C(=O)NCCCn2ccnc2)c1,3%,2%
COc1ccc(S(=O)(=O)N2CCC(C)CC2)cc1OC,7%,-17%
Cc1ccc(NC(=O)Nc2nnc(-c3ccccc3)o2)cc1,8%,7%
COC(=O)CCC(=O)OC1(C)C(=O)C=C2C=C(C3CC3)N(CCc3c[nH]c4ccccc34)C=C2C1=O (stereo not given),-20%,-1%[12.8 µM]
CCCN1C(=O)COc2ccc(-c3n[nH]c(=O)c4ccccc34)cc21,?,0%
Cc1noc(C)c1S(=O)(=O)N1CCC(C(=O)NCCCN2CC(C)CC(C)C2)CC1 (stereo not given),?,-12%
S=C(NCc1ccccn1)Nc1ccc(Cl)cc1,?,4%

smiles,TDP1 cell CPT,N370S GC mod
Cc1cccc(NC(=O)Cn2nnc(C(=O)NCc3ccco3)c2N)c1,0%&-3%,3%
CS(=O)(=O)N(Cc1ccc(Cl)cc1)c1ccc(C(=O)Nc2cccnc2)cc1,-17%,-11%
N#CCCN(C(=O)COC(=O)c1ccc2c(c1)NC(=O)CS2)c1ccc2c(c1)OCCO2,-17%,-13%
O=C(COc1ccc(-c2nnco2)cc1)Nc1c(Cl)cccc1C(F)(F)F,-17%,-12%
CCOC(=O)N1CCN(CC(=O)Nc2cc3c(cc2C(C)=O)OCO3)CC1,-26%,-6%
Cc1ccc(C)n1-c1ccc(-c2ccnc(N)n2)cc1,-30%,-6%
COc1ccccc1NC(=O)CSc1nnnn1Cc1ccccc1,-2%,7%
Cc1nc([N+](=O)[O-])nn1C12CC3CC(CC(Cl)(C3)C1)C2,-25%,12%
N#Cc1c(-c2ccccc2)c(-c2ccccc2)n[nH]c1=O,-27%,-1%
CNC(=O)CSc1nc(SC)ns1,5%,-8%
COc1cc(NC(=O)C2CC(c3ccccc3O)=NO2)c(OC)cc1Cl (stereo not given),22%,-1%
O=C(Nc1nnc(SCC(=O)N2CCOCC2)s1)c1ccccc1,-21%,-7%

smiles,TDP1 cell CPT,N370S GC mod
COc1ccc2c(c1)c(C(C)=O)c(C)n2CCc1ccc(OC)c(OC)c1,-3%,-4%
CCOC(=O)c1[nH]c(C)c(C(=O)Nc2cccc(Cl)c2C)c1C,10µM*,4%
CN1CCN(CC(O)COc2ccc(C34CC5CC(CC(C5)C3)C4)cc2)CC1 (stereo not given),?,-27%
Cc1ccc(/C=C/C(=O)NCCCN2CCN(CCCNC(=O)/C=C/c3ccc(C)cc3)CC2)cc1,?,-10%
NC(=O)N/N=C1\CCS(=O)(=O)c2ccc(F)cc21,1%,3%
C/C(=N\O)C(C)(C)Nc1ccccc1F,-14%,0%
COc1ccc(/C=N/NC(=O)CCCCCNC(=O)c2ccccc2)cc1,9%,5%
COC(=O)c1cc(S(=O)(=O)NCC2CCN(Cc3cccc(Cl)c3)CC2)c[nH]1,0%,0%
Cc1ccc2c(c1)N(C(=O)CCC(=O)N1CCN(c3ccccn3)CC1)CCO2,-11%,-14%
N#CCCN(C(=O)Nc1ccccc1)c1ccccc1,-3%,5%
CC(C)(C)c1ccc(OCC(=O)Nc2ccncc2)cc1,?,-23%
CCOC(=O)N1CCN(C(=O)c2cc3c(-c4ccc(Cl)cc4)nn(C)c3s2)CC1,16µM*,5%

smiles,TDP1 cell CPT,N370S GC mod
O=C(Cc1ccccc1)Nc1ccc(S(=O)(=O)N2CCCC2)cc1,1%,-1%
Cc1ccc(S(=O)(=O)Cn2nnnc2CN2CCOCC2)cc1,-19%,0%
CN(CC(=O)NCCN1CCOCC1)S(=O)(=O)c1ccc(Cl)cc1,-13%,nt
COc1ccccc1Nc1nc(N)nc(CSc2nc(C)cc(C)n2)n1,32%[activator],15%
CCn1c(/C=C/N(C(C)=O)c2ccccc2)[n+](CCCS(=O)(=O)[O-])c2cc(Cl)c(Cl)cc21,9%,-14%
O=C(COC(=O)CNC(=O)c1cccc(F)c1)NCCC1=CCCCC1,-1%,-1%
Cn1c(C(O)c2ccc(Cl)cc2)nc(Cl)c1Cl (stereo not given),-6%,2%
O=C(/C=C\c1ccco1)Oc1cccc2cccnc12,0.58µM*,3%
CCNC(=O)CC1C(=O)N(c2ccccc2)C(=O)N1CCc1ccc(OC)cc1 (stereo not given),?,2%
COc1cccc(C=Nc2cc(C)on2)c1O,-4%,-1%
Cc1cc(C(=O)CSc2nnc(N)s2)c(C)n1Cc1ccco1,7%,5%
CC(NC(=O)CN1C(=O)NC(Cc2ccccc2)(Cc2ccccc2)C1=O)C12CC3CC(CC(C3)C1)C2 (stereo not given),?,11%

smiles,TDP1 cell CPT,N370S GC mod
CCSc1nc2ccccc2n1CC(=O)N1CCOCC1,-4%,-12%
O=C(/C=C/c1ccc([N+](=O)[O-])s1)N1CCCC1,21µM*,-6%
CS(=O)(=O)c1ccc2nc(NC(=O)c3ccccc3Cl)sc2c1,-5%,1%
CC(C)NC1CS(=O)(=O)CC1O (stereo not given),-4%,-6%[12.8 µM]
COc1ccc(CN2C(=O)CCC2(C)C(=O)NC2CCCC2)c(OC)c1 (stereo not given),16%,-16%
CCC1CCCCN1S(=O)(=O)c1ccc(C(=O)Nc2nnc(-c3cccs3)o2)cc1 (stereo not given),6.3µM*,-3%
Cc1cccc(N2CCN(C(=O)C3COc4ccccc4O3)CC2)c1C (stereo not given),-17%,-8%
CN1C2CCC1CC(NC(=O)c1cc(S(=O)(=O)N(C)C)c(Cl)cc1Cl)C2 (stereo not given),-12%,nt
Cc1ccc(OCC(=O)N2CCc3ccccc32)cc1,2%,7%
CCC(CC)n1[nH]c(=O)c2c(C)cc(C)nc21,1%,1%
CCOc1ccc(-c2c(C(=O)N/N=C(\C)c3cccs3)nnn2-c2nonc2N)cc1,8%,-4%
CC(C)(O)C#Cc1ccc(CN2CCN(C3CCCCC3)C(CCO)C2)cc1 (stereo not given),-15%,-1%
Cc1ccccc1NC(=O)CCS(=O)(=O)c1cccc2nonc12,14%,1%
O=C1CC(c2ccccc2)CC(O)=C1C=NCCN1CCN(C(=O)Nc2ccccc2)CC1 (stereo not given),-6%,-8%
O=C(CSc1nccn1-c1cccc(Cl)c1)Nc1ccc2c(c1)OCCO2,1%,14%

# Not all compounds are listed; most or all hits stand in other tables.
